From PubChem
Vaccinia inh – blocks a specific stage of Vaccinia orthopoxvirus infection. 89,000 tested, 0.01% active. activity change (mCherry), % (no concentration beside the values). Vaccinia-infected cells, mCherry/Venus stage reporter fluorescence; stronger effect = lower value; some inactives read as strong as hits;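 active means mCherry past -33% and 40 or more points under the early reporter, replicates agreeing; inconclusive means past -33% without that gap or agreement; tested in A549 cells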;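 further: scaled between vehicle wells and reference inhibitor wells; 23 nL library stock went into each well; one replicate is shown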
Vaccinia inh Venus – second read-out of Vaccinia inh, no call of its own (marks repeat the call); activity change (Venus), %; measured here: Venus reporter, other viral stage;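 negative = less Venus signal; first of two replicates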
Numbers without * were called inactive; u = inconclusive; x = not tested or not shown.

Screens in order – Vaccinia inh, Vaccinia inh Venus
CCC(=O)Nc1ccc2c(c1)OC[C@@H](C)N(C(=O)C1CCC1)C[C@@H](C)[C@H](OC)CN(C)C2=O
    4, 3
C[C@H](CO)N1C[C@H](C)[C@H](CN(C)Cc2ccncc2)Oc2ncc(-c3cncnc3)cc2C1=O
    16, 12
C[C@@H]1CN([C@H](C)CO)C(=O)Cc2cc(NC(=O)C3CC3)ccc2O[C@H]1CN(C)CC1CC1
    4, 8
CNC[C@@H]1OCCCC[C@@H](C)Oc2ccc(NS(=O)(=O)c3ccccc3)cc2C(=O)N([C@@H](C)CO)C[C@@H]1C
    14, 4
C[C@@H]1CCCCO[C@H](CN(C)CC2CC2)[C@H](C)CN([C@@H](C)CO)C(=O)c2cc(NC(=O)Cc3ccccc3)ccc2O1
    -8, -17
C[C@@H]1CCCCO[C@H](CN(C)C(=O)C2CCCCC2)[C@H](C)CN([C@@H](C)CO)C(=O)c2cc(NS(=O)(=O)c3cn(C)cn3)ccc2O1
    23, 6
C[C@H](O)C#Cc1cnc2c(c1)C(=O)N([C@@H](C)CO)C[C@H](C)[C@@H](CN(C)C(=O)c1ccccc1F)O2
    -3, -12
C[C@@H]1CN([C@H](C)CO)C(=O)c2cc(C#Cc3ccccc3F)cnc2O[C@H]1CN(C)C(=O)Cc1ccccc1
    -9, -13
CN(C)CCCNC(=O)C[C@H]1CC[C@@H]2[C@@H](COc3ccc(NC(=O)c4ccccc4F)cc3C(=O)N2C)O1
    10, 12
COc1ccc(S(=O)(=O)N(C)C[C@@H]2OCc3cnnn3CCCC(=O)N([C@H](C)CO)C[C@@H]2C)cc1
    16, 1
C[C@H](CO)N1C[C@H](C)[C@H](CN(C)S(=O)(=O)c2cccs2)OCCCC[C@H](C)Oc2ccc(NS(C)(=O)=O)cc2C1=O
    6, -4
COc1ccccc1S(=O)(=O)N[C@H]1CC[C@@H](CC(=O)NCc2cc(F)cc(F)c2)O[C@H]1CO
    7, 0
C[C@H]1CN([C@@H](C)CO)C(=O)c2cccc(N(C)C)c2O[C@H]1CN(C)Cc1ccc(C(=O)Nc2ccccc2N)cc1
    -17, -4
COc1ccccc1-c1cnc2c(c1)C(=O)N([C@@H](C)CO)C[C@@H](C)[C@@H](CN(C)C)O2
    16, 5
COC(=O)[C@@H]1[C@@H](CO)[C@@H]2Cn3c(ccc(C4=CCCCC4)c3=O)[C@@H]2N1Cc1cccnc1
    16, 9
CO[C@H]1CN(C)C(=O)c2ccc(NC(=O)Nc3cccc(Cl)c3)cc2OC[C@H](C)NC[C@@H]1C
    u, x
CCCNC(=O)N1CC2(CN(CC3CCOCC3)C2)c2c([nH]c3cc(OC)ccc23)[C@H]1CO
    18, 7
CNC[C@@H]1Oc2ccc(NC(=O)CCCN(C)C)cc2C(=O)N([C@@H](C)CO)C[C@H]1C
    10, 15
C[C@H](CO)N1C[C@H](C)[C@H](CN(C)C(=O)CN(C)C)Oc2cc(C#CCN(C)C)ccc2S1(=O)=O
    1, 1
C=CCN1C(=O)[C@]2(O[C@H](CCn3cc(CCO)nn3)[C@@H]([Si](C)(C)c3ccc(OC)cc3)[C@@H]2C)c2cc(N3CCOC3=O)ccc21
    u, x

Next part.
Screens in order – Vaccinia inh, Vaccinia inh Venus
CN1[C@@H]2Cn3c(ccc(-c4ccccc4)c3=O)[C@H]1[C@@H](C(=O)NC1CCCCC1)[C@@H]2CO
    -2, 3
COc1ccc(S(=O)(=O)Nc2ccc3c(c2)C(=O)N([C@H](C)CO)C[C@H](C)[C@H](CN(C)C(=O)Nc2ccccc2)OCCCC[C@H](C)O3)cc1
    -16, -10
C[C@@H]1CCCCO[C@H](CN(C)S(=O)(=O)c2ccc(F)cc2)[C@H](C)CN([C@H](C)CO)C(=O)c2cc(NC(=O)C3CCCCC3)ccc2O1
    -31, -14
O=C(c1ccccn1)N1C[C@@H]2[C@H](c3ccccc31)[C@H](CO)N2C(=O)Cc1ccccc1
    6, 2
O=C(N[C@@H]1C=C[C@@H](CC(=O)N2CCC(Cc3ccccc3)CC2)O[C@H]1CO)c1cnccn1
    17, 10
O=C(c1ccc(F)cc1)N1CC(=O)N2[C@@H](CO)[C@@H](c3ccc(C4=CCCC4)cc3)[C@@H]2C1
    9, 13
C[C@H](CO)N1C[C@H](C)[C@H](CN(C)Cc2ccccc2)Oc2ccc(NC(=O)CCCN(C)C)cc2C1=O
    2, 2
Cc1cc(C(=O)Nc2cccc3c2O[C@@H](CN(C)CC2CCCCC2)[C@@H](C)CN([C@@H](C)CO)C3=O)n(C)n1
    1, -5
CO[C@@H]1CN(C)C(=O)c2cc(NC(=O)C3CCC3)ccc2OC[C@@H](C)N(S(=O)(=O)c2ccc(Cl)cc2)C[C@H]1C
    -26, -23
CO[C@@H]1CN(C)C(=O)c2ccc(NS(=O)(=O)c3ccc(-c4ccccc4)cc3)cc2OC[C@H](C)NC[C@@H]1C
    -4, -4
Cc1ccc(S(=O)(=O)N(C)C[C@H]2Oc3ccc(N(C)C)cc3C(=O)N([C@H](C)CO)C[C@H]2C)cc1
    9, -7
C[C@@H]1CN([C@H](C)CO)C(=O)c2ccccc2-c2ccccc2CO[C@@H]1CN(C)C(=O)Nc1ccc(-c2ccccc2)cc1
    u, x
Cc1noc(C)c1NC(=O)Nc1ccc2c(c1)CC(=O)N([C@@H](C)CO)C[C@H](C)[C@@H](CN(C)S(=O)(=O)c1ccc(Cl)cc1)O2
    14, 6
COCC(=O)N1C[C@@H](C)[C@H](OC)CN(C)C(=O)c2cc(NC(=O)NC(C)C)ccc2OC[C@@H]1C
    8, 19
CO[C@H]1CC[C@@H]2CCOc3ccc(C#N)cc3C(=O)N(C)C[C@@H](OC)[C@H](C)C(=O)N(C)C[C@@H]1O2
    0, 1
Cc1noc(C)c1NC(=O)Nc1ccc2c(c1)C(=O)N([C@@H](C)CO)C[C@H](C)[C@H](CN(C)C(=O)Nc1ccc3c(c1)OCO3)O2
    6, -2
CC(=O)N1[C@@H](CO)[C@H](c2ccccc2)[C@@H]1CN(C)C(=O)CN1CCOCC1
    3, 7
CN1C(=O)c2cc(NC(=O)c3cccc(C(F)(F)F)c3)ccc2OC[C@@H]2O[C@@H](CC(=O)O)CC[C@H]21
    4, 6
CC(C)NC(=O)Nc1ccc2c(c1)C(=O)N([C@@H](C)CO)C[C@@H](C)[C@H](CN(C)C(=O)Nc1ccccc1)O2
    2, 0
CCCN(C)C[C@H]1Oc2ncc(C#Cc3ccc(F)cc3)cc2C(=O)N([C@@H](C)CO)C[C@H]1C
    u, x

(cont.)
Screens in order – Vaccinia inh, Vaccinia inh Venus
O=C(N[C@@H]1CC[C@H](CCNS(=O)(=O)c2ccccc2Cl)O[C@H]1CO)c1ccc(F)cc1
    -5, -4
CN1CCN(C(=O)C[C@H]2C[C@H]3c4cc(NC(=O)NC5CCCCC5)ccc4O[C@H]3[C@@H](CO)O2)CC1
    2, 5
Cc1cccc(S(=O)(=O)N2CCCCN3[C@H](CO)[C@@H](c4ccc(C#C[C@@H](C)O)cc4)[C@@H]3C2)c1
    -9, -16
COCC(=O)N1CC[C@@H]2[C@H]1c1cc(-c3ccccc3)ccc1N(C)[C@@H]2CO
    9, 0
C[C@@H]1CN([C@@H](C)CO)C(=O)c2cc(C3=CCCC3)cnc2O[C@H]1CN(C)C(=O)NC1CCCC1
    8, 9
O=C(C[C@@H]1CC[C@@H](NS(=O)(=O)c2ccccc2)[C@@H](CO)O1)N1CCc2ccccc2C1
    11, 10
C[C@H]1CN([C@@H](C)CO)C(=O)Cc2cc(N(C)C)ccc2O[C@@H]1CN(C)S(=O)(=O)c1cn(C)cn1
    2, 2
COCC#Cc1ccc2c(c1)O[C@H](CN(C)C(=O)CN(C)C)[C@@H](C)CN([C@H](C)CO)S2(=O)=O
    12, 6
CNC[C@H]1Oc2ccc(NC(=O)Nc3ccc(OC)cc3)cc2C(=O)N([C@@H](C)CO)C[C@@H]1C
    6, 2
C[C@H](CO)N1C[C@H](C)[C@@H](CN(C)S(=O)(=O)c2ccc(F)cc2)Oc2ncc(C#CC3CCCCC3)cc2C1=O
    u, x
COc1ccc(NC(=O)N[C@@H]2CC[C@H](CC(=O)NC3CCCCC3)O[C@@H]2CO)cc1
    5, 3
CN1CCN(C(=O)C[C@H]2CC[C@@H]3[C@H](COC[C@H](O)CN3C(=O)C3CC3)O2)CC1
    6, 18
COc1ccccc1CNC(=O)C[C@@H]1C[C@@H]2c3cc(NC(=O)C4CCOCC4)ccc3O[C@@H]2[C@@H](CO)O1
    4, 5
CCCNC(=O)C[C@@H]1CC[C@H]2[C@@H](COc3ccc(NC(=O)c4ccc5c(c4)OCO5)cc3C(=O)N2C)O1
    -1, 6
O=C(Cc1ccccc1)N1C[C@H]2[C@@H](c3ccccc31)[C@H](CO)N2C(=O)c1cccc(F)c1
    -3, -10
CN(C)C(=O)C[C@H]1C[C@H]2c3cc(NC(=O)Cc4ccncc4)ccc3O[C@H]2[C@@H](CO)O1
    2, 3
C[C@H](CO)N1C[C@H](C)[C@@H](CN(C)Cc2ccccc2)Oc2ccc(NS(=O)(=O)c3ccc(Cl)cc3)cc2CC1=O
    u, x
O=C(NCC[C@@H]1CC[C@@H](NC(=O)c2ccc3c(c2)OCO3)[C@H](CO)O1)Nc1cc(F)ccc1F
    -17, -18
CO[C@H]1CC[C@@H]2CCOc3c(C#N)cccc3C(=O)N(C)C[C@@H](c3ccccc3)CC(=O)N(C)C[C@@H]1O2
    5, -7
N#C[C@@H]1[C@@H](c2ccc(-c3cncnc3)cc2)[C@H](CO)N1C(=O)CN1CCOCC1
    11, 1

Reformatted as labelled records: part of the list above
> O=C(Cc1ccccc1)N1C[C@H]2[C@@H](c3ccccc31)[C@H](CO)N2C(=O)c1cccc(F)c1
- Vaccinia inh: -3
- Vaccinia inh Venus: -10

> CN1[C@@H]2Cn3c(ccc(-c4ccccc4)c3=O)[C@H]1[C@@H](C(=O)NC1CCCCC1)[C@@H]2CO
- Vaccinia inh: -2
- Vaccinia inh Venus: 3

> O=C(c1ccccn1)N1C[C@@H]2[C@H](c3ccccc31)[C@H](CO)N2C(=O)Cc1ccccc1
- Vaccinia inh: 6
- Vaccinia inh Venus: 2

Back to the main list, repeating the 2 entries before the break.
Screens in order – Vaccinia inh, Vaccinia inh Venus
CO[C@H]1CC[C@@H]2CCOc3c(C#N)cccc3C(=O)N(C)C[C@@H](c3ccccc3)CC(=O)N(C)C[C@@H]1O2
    5, -7
N#C[C@@H]1[C@@H](c2ccc(-c3cncnc3)cc2)[C@H](CO)N1C(=O)CN1CCOCC1
    11, 1
Cc1ccc(S(=O)(=O)N(C)C[C@H]2OCCCC[C@H](C)Oc3ccc(NC(=O)c4ccncc4)cc3C(=O)N([C@@H](C)CO)C[C@@H]2C)cc1
    -12, 0
CN1c2ccc(-c3ccc(F)cc3)cc2[C@@H]2[C@@H](CCN2S(=O)(=O)c2cccc(F)c2)[C@@H]1CO
    -30, -36
CC(C)NC(=O)Nc1ccc2c(c1)C(=O)N([C@H](C)CO)C[C@H](C)[C@@H](CN(C)C(=O)Nc1ccccc1)OCCCC[C@@H](C)O2
    9, -1
COc1ccc(CN(C)C[C@H]2Oc3ccc(NC(=O)c4ccncc4)cc3C(=O)N([C@H](C)CO)C[C@@H]2C)cc1
    9, -3
C[C@@H]1CN([C@H](C)CO)C(=O)c2cc(-c3cccnc3)cnc2O[C@@H]1CN(C)Cc1ccc(-c2ccccc2)cc1
    u, x
Cc1cccc(S(=O)(=O)N2CCCCN3[C@H](CO)[C@H](c4ccc(C#CC5CC5)cc4)[C@H]3C2)c1
    u, x
C[C@H]1CN([C@@H](C)CO)C(=O)c2cc(C#CC3(O)CCCC3)cnc2O[C@H]1CN(C)S(=O)(=O)c1cccc(F)c1
    2, 2
COc1ccc2c3c([nH]c2c1)[C@@H](CO)N(Cc1ccccc1)CC31CN(C(=O)Nc2cccc(F)c2)C1
    4, 2
C[C@@H]1CN([C@H](C)CO)C(=O)c2c(c3ccccc3n2C)-c2ccccc2CO[C@H]1CN(C)CC1CC1
    -2, -8
C[C@@H]1CN([C@H](C)CO)C(=O)c2cc(C#CCN(C)C)cnc2O[C@@H]1CN(C)C(=O)c1ccc(F)cc1
    0, -1
O=S(=O)(c1ccccc1)N1CCCCN2[C@H](CO)[C@H](c3ccc(C#Cc4cccnc4)cc3)[C@@H]2C1
    7, -9
C[C@H]1CCCCO[C@@H](CN(C)C(=O)Cc2ccccc2)[C@@H](C)CN([C@@H](C)CO)C(=O)c2cc(NC(=O)Cc3ccccc3)ccc2O1
    u, x
CCC(=O)N1[C@@H]2c3ccc(C4=CCCC4)c(=O)n3C[C@H]1[C@H](CO)[C@H]2C(=O)N[C@H](C)c1ccccc1
    2, 4
Cc1c(N2C(=O)CSC2c2ccccc2)c(=O)n(-c2ccccc2)n1C (centres undefined)
    11, 4
O=C(C[C@H]1CC[C@@H]2[C@H](COC[C@@H](O)CN2C(=O)c2ccncc2)O1)NCc1cccc(F)c1
    3, 10
O=S(=O)(NC[C@H]1CC[C@@H]2[C@@H](CN2Cc2cccc(-c3ccccn3)c2)O1)c1ccccc1
    11, 11
COc1ccccc1S(=O)(=O)N(C)C[C@@H]1Oc2cc(C#CCC3CCCC3)ccc2S(=O)(=O)N([C@@H](C)CO)C[C@H]1C
    u, x
CN1CCN(C(=O)C[C@H]2CC[C@@H]3[C@H](COc4ccc(NC(=O)C5CCC5)cc4C(=O)N3C)O2)CC1
    13, -1
C[C@@H]1CN([C@@H](C)CO)C(=O)c2cc(-c3cccnc3)cnc2O[C@@H]1CN(C)C(=O)Nc1ccccc1
    6, 12
C[C@@H]1CN([C@H](C)CO)C(=O)c2cccc(NC(=O)c3nc4ccccc4s3)c2O[C@@H]1CN(C)S(C)(=O)=O
    5, 16

Only part of the results is shown, so the mix of outcomes need not match the whole.
